MT1-MMP act inh – MT1-MMP (human) activation inhibition; AID 651647; HT1080 RFP-PRO-GFP cells, GFP/RFP ratio fluorescence, overnight; percent of plate control window, DMSO zero; 0.061% of 360,000 active; GFP/RFP ratio change, % at 20 µM;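 active = GFP/RFP ratio change of at least 30% with cell ATP level not reduced by more than half and red fluorescence within 50% of control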; also: strong numbers were not always called active
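Assay system – RFP-PRO-GFP reporter HT1080 cells · Compound dosing – single dose of 20 µM compound, 1% DMSO final · Incubation – overnight compound exposure at 37 °C · Measure – GFP/RFP fluorescence ratio · Benchmarks – DMSO wells and RFP-L50D-GFP cells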
HIV Env fusion – HIV envelope-mediated fusion inhibition; 1.1% of 360,000 active; HeLa-JRFL Env/CEM21 cell fusion, luciferase; AID 651610; inhibition, % at 12.3 µM;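 active = mean replicate inhibition score of at least 50 and every replicate individually at or above 50; inconclusive = only one of the two criteria met; inactive = mean below 50 and not all replicates reaching 50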;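 also: 0% = plate neutral controls and 100% = maraviroc near 300 nM; one replicate is shown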
CSC inhib – blocks cancer stem cells. cancer stem cell-like cells viability, luminescence. inhibition, % at 7.5 µM. 1.1% of 300,000 active;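 active = mean at 75% or more and at least half the replicates too; inconclusive = mean and replicates disagree; tested in HMLE shEcad cells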;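 also: 0% = median of negative and 100% = median of positive control wells; the first replicate is given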
Rce1 inh – inhibitors of yeast Ras-converting enzyme. calls only. 0.27% of 290,000 active. yeast membranes, quenched prenylated peptide cleavage fluorescence;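 active = fall in fluorescence gain of 50% or more versus controls, with final raw signal at or below 3038400; inconclusive = same 50% fall but final raw signal above 3038400; inactive = fall in fluorescence gain under 50%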;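 also: plate controls were neutral control wells for no effect and wells lacking membranes for full effect; tested at 10 µM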
Target sequence (Q03530 whole entry, looked up): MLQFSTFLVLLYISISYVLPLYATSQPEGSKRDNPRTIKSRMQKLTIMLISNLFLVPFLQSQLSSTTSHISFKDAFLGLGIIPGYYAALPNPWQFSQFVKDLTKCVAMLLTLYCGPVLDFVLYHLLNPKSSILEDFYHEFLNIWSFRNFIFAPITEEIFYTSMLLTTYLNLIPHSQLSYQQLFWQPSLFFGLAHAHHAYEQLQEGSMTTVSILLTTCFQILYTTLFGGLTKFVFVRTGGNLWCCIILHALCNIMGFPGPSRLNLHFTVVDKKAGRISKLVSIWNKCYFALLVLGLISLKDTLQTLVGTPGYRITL
UUG fidelity – alters start codon recognition fidelity in yeast; AID 602363; 0.13% of 350,000 active; activity score, % at 18.7 µM; S. cerevisiae UUG-firefly luciferase reporter, luminescence/redox ratio;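 active = replicate mean at a twofold rise or more, about +100% in these data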;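 also: firefly luciferase made from a UUG start codon reports start codon fidelity; reporter light over untreated wells divided by growth signal over untreated wells; some hits fall short of that in this replicate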
eIF4H inh – inhibitors of RNA binding by human eIF4H; Q15056; eIF4H fluorescence polarization binding assay; inhibition, % at 35 µM; 0.94% of 290,000 active; AID 2012;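 active = 50% or more with normal probe brightness, or confirmed in later tests; inconclusive = above 50% with abnormal brightness, or retests that disagree; inactive = below 50% or failed in later tests; about a fifth of its hits are not listed in these tables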;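 also: calls also rest on retests at 20 µM and on dose response follow-up; 0% = protein and probe with vehicle and 100% = probe without protein; strong numbers were not always called active; many hits fall short of the cut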
PABP polyA inh – PABP-poly(A) binding inhibition. PABP-poly(A) RNA binding, fluorescence polarization. inhibition, % at 35 µM. 1% of 290,000 active. AID 2014;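 active = 50% or more with normal probe brightness, or confirmed in later tests; inconclusive = above 50% with abnormal brightness, or retests that disagree; inactive = below 50% or failed in later tests; about a fifth of its hits are not listed in these tables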;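 also: calls also rest on retests at 20 µM and on dose response follow-up; controls were probe without protein and protein plus probe with vehicle; some compounds called inactive have numbers as strong as hits; many hits fall short of the cut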
MT1-MMP act inh RFP – recorded beside MT1-MMP act inh, whose call it bears; RFP signal change, %; measured here: RFP expression control read;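 0 = vehicle wells; hits needed this value within 50% of zero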
Active calls of the source: *. Only part of the results is shown; count on the stated rates, not on these rows.

How did COc1ccc(C(C(=O)NCC2CCCO2)N(C(=O)c2snc(C(N)=O)c2N)c2ccc(C)cc2)cc1OC (stereo not given) do in these assays?
MT1-MMP act inh: -1; HIV Env fusion: 8; Rce1 inh: inactive; UUG fidelity: 5; eIF4H inh: -11; PABP polyA inh: -1; MT1-MMP act inh RFP: -2

How did CCC(C)(C)NC(=O)C(c1cccn1C)N(Cc1ccc(C)cc1)C(=O)Cn1nnc2ccccc21 (stereo not given) do in these assays?
MT1-MMP act inh: -6; CSC inhib: -9; Rce1 inh: inactive; UUG fidelity: -13; eIF4H inh: -12; PABP polyA inh: -6; MT1-MMP act inh RFP: -7

Results for COc1ccc(-c2ccc3c(c2)S(=O)(=O)c2cccc(C(=O)N4CCN(c5c(Cl)cncc5Cl)CC4)c2C3=O)cc1OC ?
MT1-MMP act inh: 0; HIV Env fusion: 38; UUG fidelity: -3; MT1-MMP act inh RFP: -1

How did O=C(CN1N=C(c2ccc(Cl)cc2)CCC1=O)NCc1cccnc1 do in these assays?
MT1-MMP act inh: -1; HIV Env fusion: 14; CSC inhib: -13; Rce1 inh: inactive; UUG fidelity: -2; eIF4H inh: -1; PABP polyA inh: -6; MT1-MMP act inh RFP: 2

Results for N#Cc1c(NC(=O)CSc2ncc(-c3ccccc3)n2CC2CCCO2)sc2c1CCCC2 (stereo not given) ?
MT1-MMP act inh: 3; HIV Env fusion: 68*; Rce1 inh: inactive; UUG fidelity: -5; eIF4H inh: -14; PABP polyA inh: -4; MT1-MMP act inh RFP: -16

How did COc1cc(CN2CCN(C3CCC3)CC2CCO)cc(OC)c1 (stereo not given) do in these assays?
MT1-MMP act inh: -1; HIV Env fusion: 7; CSC inhib: -3; Rce1 inh: inactive; UUG fidelity: -7; eIF4H inh: 6; PABP polyA inh: -2; MT1-MMP act inh RFP: 6

How did COc1ccc(NC(=O)COC(=O)Cc2c(F)cccc2Cl)cc1 do in these assays?
MT1-MMP act inh: -4; HIV Env fusion: 8; CSC inhib: -1; UUG fidelity: -6; eIF4H inh: -6; PABP polyA inh: inconclusive; MT1-MMP act inh RFP: -3

What do the screens show for `COc1cccc(CC2(CO)CCCN(Cc3cn[nH]c3C3CCCCC3)C2)c1` (stereo not given)?
MT1-MMP act inh: 0; HIV Env fusion: -5; CSC inhib: -4; Rce1 inh: inactive; eIF4H inh: 3; PABP polyA inh: -2; MT1-MMP act inh RFP: 0

What do the screens show for `NNC(=S)NCc1ccco1`?
MT1-MMP act inh: 1; HIV Env fusion: 0; CSC inhib: 2; Rce1 inh: inactive; eIF4H inh: 3; PABP polyA inh: 0; MT1-MMP act inh RFP: 8

How did COc1ccc(NC(=O)Cn2c(-c3ccc(OC)cc3)cn(-c3ccc(C)cc3)c2=O)cc1 do in these assays?
MT1-MMP act inh: -11; CSC inhib: -15; Rce1 inh: inactive; UUG fidelity: -13; eIF4H inh: -12; PABP polyA inh: 2; MT1-MMP act inh RFP: -2

How did COc1ccc(S(=O)(=O)c2ccccc2)cc1NC(=O)c1c(F)cccc1F do in these assays?
MT1-MMP act inh: 6; HIV Env fusion: -7; CSC inhib: -6; Rce1 inh: inactive; UUG fidelity: 19; eIF4H inh: 4; PABP polyA inh: -8; MT1-MMP act inh RFP: 5

How did O=C(CCN1C(=O)/C(=C/C=C/c2ccccc2)SC1=S)Nc1cccnc1 do in these assays?
MT1-MMP act inh: 7; HIV Env fusion: -25; CSC inhib: 18; Rce1 inh: inactive; eIF4H inh: 0; PABP polyA inh: -12; MT1-MMP act inh RFP: 8

What do the screens show for `CN(C1=C(N2CCCCC2)C(=O)c2ccccc2C1=O)c1ccccc1`?
MT1-MMP act inh: 4; HIV Env fusion: 7; Rce1 inh: inactive; UUG fidelity: -12; eIF4H inh: -2; PABP polyA inh: -2; MT1-MMP act inh RFP: -5

Results for CCc1c(C)sc(NC(=O)C2CC(c3c(F)cccc3Cl)=NO2)c1C#N (stereo not given) ?
MT1-MMP act inh: -2; HIV Env fusion: 15; CSC inhib: 3; Rce1 inh: inactive; UUG fidelity: 6; eIF4H inh: -4; PABP polyA inh: -2; MT1-MMP act inh RFP: 0

How did O=C(c1ccc(Br)o1)N1CCN(C23CC4CC(CC(C4)C2)C3)CC1 do in these assays?
MT1-MMP act inh: -1; HIV Env fusion: -12; CSC inhib: -5; Rce1 inh: inactive; UUG fidelity: -5; eIF4H inh: -4; PABP polyA inh: -5; MT1-MMP act inh RFP: 1

Results for CC(=O)c1cn(CC(=O)Nc2cccc(C)c2C)c2ccccc12 ?
MT1-MMP act inh: -5; HIV Env fusion: 12; CSC inhib: -5; Rce1 inh: inactive; UUG fidelity: 7; eIF4H inh: 4; PABP polyA inh: -1; MT1-MMP act inh RFP: -23

What do the screens show for `CCOC(=O)c1c(C2CC2)csc1NC(=O)COC(=O)CCS(=O)(=O)c1ccc(C)cc1`?
MT1-MMP act inh: 0; HIV Env fusion: -1; CSC inhib: 4; Rce1 inh: inactive; UUG fidelity: 0; eIF4H inh: -4; PABP polyA inh: -6; MT1-MMP act inh RFP: 3

How did COC(=O)C1=C(C)N(CCCC(=O)O)C(=O)NC1c1ccc(C#N)cc1 (stereo not given) do in these assays?
MT1-MMP act inh: 7; HIV Env fusion: -60; CSC inhib: -9; Rce1 inh: inactive; UUG fidelity: -1; MT1-MMP act inh RFP: 1

Results for CCOC(=O)Cc1csc(NC(=O)c2cc(C)cc(C)c2)n1 ?
MT1-MMP act inh: 2; HIV Env fusion: 0; CSC inhib: -1; Rce1 inh: inactive; UUG fidelity: -11; eIF4H inh: 0; PABP polyA inh: -9; MT1-MMP act inh RFP: 4

What do the screens show for `COc1ccc(OC)c(N=c2oc3cc(O)ccc3cc2C(N)=O)c1`?
MT1-MMP act inh: 0; HIV Env fusion: -46; CSC inhib: 37; Rce1 inh: inactive; UUG fidelity: -15; eIF4H inh: 6; PABP polyA inh: -7; MT1-MMP act inh RFP: -2

Results for CCCNC(=S)Nc1ccc2nc(-c3ccccn3)c(-c3ccccn3)nc2c1 ?
MT1-MMP act inh: -39; HIV Env fusion: -25; CSC inhib: -8; Rce1 inh: inactive; UUG fidelity: -1; eIF4H inh: 20; PABP polyA inh: 18; MT1-MMP act inh RFP: 9

Results for Cc1csc(=O)n1CC(=O)OCC(=O)Nc1ccccc1C(C)C ?
MT1-MMP act inh: 7; CSC inhib: 4; UUG fidelity: 2; MT1-MMP act inh RFP: 3

What do the screens show for `CSC(=Nc1ccccc1)Nc1ccccc1`?
MT1-MMP act inh: 1; HIV Env fusion: -13; CSC inhib: -2; Rce1 inh: inactive; UUG fidelity: -15; eIF4H inh: -10; PABP polyA inh: 3; MT1-MMP act inh RFP: -3

Results for CCOC(=O)C1CC(C)=C(C)CC1C(=O)O (stereo not given) ?
MT1-MMP act inh: 0; HIV Env fusion: 7; CSC inhib: -1; Rce1 inh: inactive; UUG fidelity: -16; eIF4H inh: 10; PABP polyA inh: 5; MT1-MMP act inh RFP: 1

How did O=C(NCc1ccc2c(c1)OCO2)C1CCN(S(=O)(=O)c2ccc(Br)s2)CC1 do in these assays?
MT1-MMP act inh: -7; CSC inhib: -8; Rce1 inh: inactive; UUG fidelity: 5; eIF4H inh: -12; PABP polyA inh: 3; MT1-MMP act inh RFP: -5

What do the screens show for `CC(CCc1ccccc1)C(=O)NO` (stereo not given)?
MT1-MMP act inh: 2; HIV Env fusion: -4; CSC inhib: -12; Rce1 inh: inactive; UUG fidelity: -18; eIF4H inh: 2; PABP polyA inh: 3; MT1-MMP act inh RFP: 1

Results for Cc1ccc(C(OC(=O)c2ccco2)C(=O)NC(C)(C)C)cc1 (stereo not given) ?
MT1-MMP act inh: -3; HIV Env fusion: 17; CSC inhib: -6; Rce1 inh: inactive; UUG fidelity: -7; eIF4H inh: -12; PABP polyA inh: -6; MT1-MMP act inh RFP: 2

Results for CC(C)(C)OC(=O)C1C(=O)CC(C)(O)C(C(=O)OC(C)(C)C)C1c1cccnc1 (stereo not given) ?
MT1-MMP act inh: 5; HIV Env fusion: -79; CSC inhib: -5; Rce1 inh: inactive; UUG fidelity: -1; eIF4H inh: -1; PABP polyA inh: -8; MT1-MMP act inh RFP: -12

How did CC1(C)CC(=O)C(C=NCCCO)=C(O)C1 do in these assays?
MT1-MMP act inh: 2; HIV Env fusion: -20; CSC inhib: -5; Rce1 inh: inactive; UUG fidelity: -1; eIF4H inh: 7; PABP polyA inh: 5; MT1-MMP act inh RFP: 3

Results for O=C(NC1CCCC1)C(c1cccs1)N(C(=O)c1ccno1)c1ccccc1 (stereo not given) ?
MT1-MMP act inh: 5; Rce1 inh: inactive; UUG fidelity: -19; eIF4H inh: 2; PABP polyA inh: -5; MT1-MMP act inh RFP: 0

What do the screens show for `CCCCNC(=S)Nc1ccc2cn[nH]c2c1`?
MT1-MMP act inh: -2; HIV Env fusion: -3; CSC inhib: -5; Rce1 inh: inactive; UUG fidelity: -27; eIF4H inh: -6; PABP polyA inh: -8; MT1-MMP act inh RFP: 2

What do the screens show for `Cc1cccc(-c2nsc(SCC(=O)Nc3nccs3)n2)c1`?
MT1-MMP act inh: -2; HIV Env fusion: 1; CSC inhib: 2; Rce1 inh: inactive; UUG fidelity: -15; eIF4H inh: 0; PABP polyA inh: 10; MT1-MMP act inh RFP: -4

What do the screens show for `NC(=O)Cc1ccc(C(=O)c2ccc(Cl)cc2Cl)s1`?
MT1-MMP act inh: -9; HIV Env fusion: 17; Rce1 inh: inactive; eIF4H inh: -3; PABP polyA inh: -21; MT1-MMP act inh RFP: -1

Results for Cc1[nH]c2ccccc2c1C(=O)C(=O)NCc1cccs1 ?
MT1-MMP act inh: 2; HIV Env fusion: -14; CSC inhib: -33; Rce1 inh: inactive; UUG fidelity: -8; eIF4H inh: 0; PABP polyA inh: -4; MT1-MMP act inh RFP: 2

How did COC(=O)Nc1ccc(S(=O)(=O)Nc2cccc3ccccc23)cc1 do in these assays?
MT1-MMP act inh: 1; HIV Env fusion: 14; CSC inhib: 16; Rce1 inh: inactive; UUG fidelity: -19; eIF4H inh: 2; PABP polyA inh: 2; MT1-MMP act inh RFP: -11

How did COc1cccc(C(C(=O)NC2CCCCC2)N(C(=O)c2cccs2)c2ccc3c(c2)OCO3)c1 (stereo not given) do in these assays?
MT1-MMP act inh: -15; HIV Env fusion: -6; CSC inhib: 8; eIF4H inh: -4; PABP polyA inh: -9; MT1-MMP act inh RFP: -14

Results for O=C(O)c1cnc(-c2ccccc2)nc1Sc1ccc(Cl)cc1Cl ?
MT1-MMP act inh: 3; HIV Env fusion: -102; CSC inhib: 67; Rce1 inh: inactive; UUG fidelity: -8; eIF4H inh: 3; PABP polyA inh: -5; MT1-MMP act inh RFP: -1

How did N/C(=N\OC(=O)C(c1ccccc1)c1ccccc1)c1cccnc1 do in these assays?
MT1-MMP act inh: -4; CSC inhib: -12; Rce1 inh: inactive; eIF4H inh: 7; PABP polyA inh: -4; MT1-MMP act inh RFP: -2

How did COc1ccc(Br)cc1/C=N/Nc1ccc(Cl)c(C(=O)O)c1 do in these assays?
MT1-MMP act inh: 0; HIV Env fusion: -4; CSC inhib: -4; Rce1 inh: inactive; UUG fidelity: 2; eIF4H inh: 2; PABP polyA inh: 1; MT1-MMP act inh RFP: 3

What do the screens show for `Cc1nc(NC(=O)c2ccccc2)sc1C`?
MT1-MMP act inh: 2; HIV Env fusion: -56; CSC inhib: -2; Rce1 inh: inactive; UUG fidelity: -24; eIF4H inh: -7; PABP polyA inh: 0; MT1-MMP act inh RFP: -1
